# Bioassay records (PubChem)
# HCMV NEC inh: inhibitors of HCMV UL50-UL53 nuclear egress complex interaction. HTRF UL50-UL53 interaction, normalized percent inhibition. inhibition, % (test concentration not listed). 190,000 compounds, 0.15% hits. AID 1918969;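 active = both replicates at 50% or more, plus weaker picks with an unusually low signal ratio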;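 note: stock transfer was 100 nL into about 20 µL; 0% = negative control wells and 100% = wells with untagged competitor protein; inactives centre near -12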
# Sa growth inh: blocks Staphylococcus aureus growth. S. aureus RN4220 growth, OD600, 20 h, 42 °C; active compounds read low. relative growth, % (concentration not given with the values). 170,000 compounds, 0.53% hits;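 active = growth at 42 °C up to 50% and 20 or more points under that at 30 °C, or under 10% at both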;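 note: 300 nL library stock went into each well; scaled to the means of positive and negative controls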
# GIV Gai3 FP: inhibitors of GIV GBA-motif binding to rat Galpha-i3; Galpha-i3/FITC-GIV peptide fluorescence polarization, 90 min; active compounds read low; scaled: aluminum fluoride 0%, vehicle 100%; P08753; 210,000 compounds, 0.42% hits; percent of control (FP), % (no concentration beside the values);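 active = replicate mean at 85% of control or lower, very high polarization wells dropped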;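 note: wells of about 15 µL received 100 nL stock; the first replicate is given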
# Target sequence (P08753 whole entry, looked up): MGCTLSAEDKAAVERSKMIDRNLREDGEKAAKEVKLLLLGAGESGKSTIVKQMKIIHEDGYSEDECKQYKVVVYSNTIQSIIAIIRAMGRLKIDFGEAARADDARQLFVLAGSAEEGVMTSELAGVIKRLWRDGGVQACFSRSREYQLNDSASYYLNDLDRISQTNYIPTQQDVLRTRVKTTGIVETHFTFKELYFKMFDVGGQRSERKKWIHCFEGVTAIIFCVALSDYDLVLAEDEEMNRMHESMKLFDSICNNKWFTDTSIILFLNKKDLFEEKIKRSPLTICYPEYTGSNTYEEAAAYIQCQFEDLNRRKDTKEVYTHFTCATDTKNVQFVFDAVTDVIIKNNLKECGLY
# Sa growth inh second temp: also measured in Sa growth inh; calls as there; relative growth, %; measured here: growth at 30 °C;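 optical density after 20 h as mean of two plates; 100% = untreated growth and lower means inhibition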
# * hit, by the source's call; / = not tested or not shown; & = joins results of further samples. Not a hit list; any-hit rate near 0.85%.
# A first look:
structure	HCMV NEC inh	Sa growth inh	Sa growth inh second temp	GIV Gai3 FP
CCOC(=O)N1CCN(C2CC(=O)N(CCc3ccc(OC)c(OC)c3)C2=O)CC1 (stereo unspecified)	-13	108	105	99
CCN(CC(=O)NC1CCS(=O)(=O)C1)Cc1nc2c(Br)cc(Br)cc2c(=O)[nH]1 (stereo unspecified)	-8	103	92	/
Cc1ccc(NC(=O)COc2ccc3ccccc3c2Br)cc1F	-1	92	79	/
CCOc1ccc(N(Cc2ccccc2)C(=O)c2nc(SC)ncc2Cl)cc1	-3	97	91	98
O=C(CCN1C(=O)/C(=C/c2ccc3c(c2)OCO3)SC1=S)N1CCC(Cc2ccccc2)CC1	-19	/	/	105
O=C(COc1ccc(S(=O)(=O)NCc2ccccc2)cc1)NCc1ccco1	-9	115	73	101
Cc1ccc(-c2ccc(=O)n(C(C)C(=O)N3CCc4ccccc43)n2)cc1C (stereo unspecified)	-6	/	/	98

# All compounds of this part, repeating the preview:
structure	HCMV NEC inh	Sa growth inh	Sa growth inh second temp	GIV Gai3 FP
CCOC(=O)N1CCN(C2CC(=O)N(CCc3ccc(OC)c(OC)c3)C2=O)CC1 (stereo unspecified)	-13	108	105	99
CCN(CC(=O)NC1CCS(=O)(=O)C1)Cc1nc2c(Br)cc(Br)cc2c(=O)[nH]1 (stereo unspecified)	-8	103	92	/
Cc1ccc(NC(=O)COc2ccc3ccccc3c2Br)cc1F	-1	92	79	/
CCOc1ccc(N(Cc2ccccc2)C(=O)c2nc(SC)ncc2Cl)cc1	-3	97	91	98
O=C(CCN1C(=O)/C(=C/c2ccc3c(c2)OCO3)SC1=S)N1CCC(Cc2ccccc2)CC1	-19	/	/	105
O=C(COc1ccc(S(=O)(=O)NCc2ccccc2)cc1)NCc1ccco1	-9	115	73	101
Cc1ccc(-c2ccc(=O)n(C(C)C(=O)N3CCc4ccccc43)n2)cc1C (stereo unspecified)	-6	/	/	98
CC(C)C(=O)N(Cc1ccccc1)c1ccccn1	-9	108	91	/
CS(=O)(=O)N1CCN(c2ccccc2NC(=S)NC(=O)c2ccc(-c3cccc(Cl)c3)o2)CC1	0	121	100	100
O=C1CC(c2ccccc2)CN1C(=O)c1ccccc1 (stereo unspecified)	5	99	79	101
CC1CCCCN1CCNC(=O)CN1C(=O)CCCc2ccccc21 (stereo unspecified)	0	/	/	111
CCOC(=O)c1noc(Oc2ccc(Cl)cc2Cl)n1	-6	113	92	102
S=C1SCN(Cc2ccccn2)CN1Cc1ccco1	-22	24	-1	103
CCC(=O)N1N=C2C(C)CN(C)C(C)C2C1c1ccco1 (stereo unspecified)	-5	98	72	103
CC1CC(N(CCC#N)S(=O)(=O)c2ccc(Br)cc2)CC(C)(C)C1 (stereo unspecified)	-26	86	95	101
COCCNC(=O)CN1CCN(Cc2cc(C)n(CCc3ccc(Cl)cc3)c2C)CC1	-12	86	97	/
O=C(CC1(O)C(=O)Nc2ccc(Br)cc21)c1cccs1 (stereo unspecified)	-19	/	/	103
NC(=O)c1ccc(NC(=O)CC2Sc3ccccc3NC2=O)cc1 (stereo unspecified)	-32	71	87	/
C=CCOc1ccc(C(=O)Nc2ccccn2)cc1	-10	91	58	99
O=C(Nc1ccc(C(F)(F)F)cc1)c1ccc2ncsc2c1	0	70	78	102
C=CC(C)c1c(CCC)nc(-c2ccccn2)[nH]c1=O (stereo unspecified)	-8	42	37	99
CCN1CCCC1CNC(=O)c1[nH]c2cc(OC)ccc2c1Sc1ccc(Cl)cc1 (stereo unspecified)	/	86	53	108
Cc1noc(C(=O)N2CCCCC2)c1Cl	-8	/	/	100
CCN(Cc1ccccc1)c1ccc(C(=O)O)cc1NS(=O)(=O)c1ccc(OC)c(Cl)c1	-13	/	/	98
Cc1ccc(NS(=O)(=O)c2c(C)nc3sc4ccccc4n3c2=O)c(Cl)c1	-6	/	/	107
Cc1ccccc1OCC(=O)OCC(=O)NC1CC1	-24	106	77	/
CCOC(=O)c1oc2c(c1C)C(=O)CCC2	-14	106	86	104
COC(=O)c1c(C)oc2ccc(OC(=O)COc3c(F)c(F)c(F)c(F)c3F)cc12	-14	/	/	102
CC(C[N+](C)(C)C)OC(N)=O (stereo unspecified)	1&-8&4&-30&-53&-21	85&98	81&94	101&103
Cc1c(Cl)cccc1Nc1nc(N)nc(CSC(=S)N(C)C2CCCCC2)n1	/	102	72	96
CCc1ccc(OCC(=O)Nc2ccc(Cl)c(-c3nc4cc(C)cc(C)c4o3)c2)cc1	-34	100	87	106
CCCN(Cc1cccs1)C(=O)NCc1ccccc1	-26	94	78	103
CC1Oc2ccc(S(=O)(=O)N3CCN(C(=O)NC4CCCCC4)CC3)cc2NC1=O (stereo unspecified)	-10	/	/	111
COc1ccc(NC(=O)c2ccc3oc(=O)c(S(=O)(=O)c4ccc(F)cc4)cc3c2)c(OC)c1	-23	104	88	97
Cc1oc2c(cc(NS(=O)(=O)c3ccc(C(C)C)cc3)c3ccccc32)c1C(=O)OCc1ccccc1	-1	103	92	109
CN(C)S(=O)(=O)c1ccc(=O)n(CC(=O)NCC2COc3ccccc3O2)c1 (stereo unspecified)	3	99	97	/
CCOc1ccc(-c2nc(CSc3nc4ccccc4c(=O)n3C)c(C)o2)cc1	-2	/	/	104
COc1cc(/C=c2\sc3nc4c(C)cccc4n3c2=O)cc(Br)c1OC	-5	/	/	113
CCN1C(=O)/C(=N/n2cnnc2)c2ccccc21	-31	113	90	/
O=C(CN1C(=O)NC(Cc2c[nH]c3ccccc23)C1=O)c1ccc2c(c1)OCCO2 (stereo unspecified)	3	94	96	/
CN(C)C(=S)SCC(=O)Nc1ccc(Cl)c(C(F)(F)F)c1	0	105	93	/
Cc1ccc(-n2ncc3c(NCCc4ccccc4)ncnc32)cc1	/	112	91	102
COc1cccc(/C(O)=C/c2nc3ccc(C(=O)N4CCN(C5CCCCC5)CC4)cc3[nH]c2=O)c1	-74	86	82	110
Cc1cnn(CCCNC(=S)Nc2ccc(S(N)(=O)=O)cc2)c1	20	107	96	106
O=C(Cc1ccc(Cl)cc1)Nc1cccc(-c2nc3ccccc3o2)c1	/	91	82	106
O=C(CCc1cn(-c2ccccc2)nc1-c1ccc2c(c1)OCO2)NC1CCCC1	-19	/	/	99
Cc1ccc(S(=O)(=O)c2cnc(SCC(=O)Nc3ccc4c(c3)OCCO4)[nH]c2=O)cc1	-13	106	85	109
CC(=O)Oc1c(C)cccc1C(=O)O	0&-71	103	103	98
N/C(=N\OC(=O)c1cccs1)c1ccccc1	-9	119	78	106
COCCNC(=O)c1cnn(-c2cccc(C)c2)c1-n1cccc1	/	89	91	101
C=C(c1ccc(OC)cc1)c1ccc(OC)cc1	-12	115	117	98
CCN(CC)S(=O)(=O)c1ccc(NC(=O)CSc2nnc(C)s2)cc1	-8	90	79	/
CCOc1ccc(S(=O)(=O)Nc2cc3c(C(=O)OCc4ccccc4)c(C)oc3c3ccccc23)cc1	-2	97	93	107
Cc1ccc(S(=O)(=O)Cc2ccc(C(=O)NCc3ccc4c(c3)OCO4)o2)cc1	3	93	83	102
O=C(c1ccccc1)N1CCN(C(=S)NCc2ccc3c(c2)OCO3)CC1	-12	102	91	/
O=S(=O)(c1ccccc1)c1nc(-c2cccc(Cl)c2)oc1N1CCOCC1	-2	110	94	105
Cc1ccc(N2C(=O)CCSC23C(=O)N(Cc2ccccc2)c2ccccc23)cc1 (stereo unspecified)	/	84	93	110
Cc1ccccc1Cn1c(=O)n(Cc2ccc(Cl)cc2)c(=O)c2cccnc21	-15	98	91	101
CC1=C(C(=O)N(C)Cc2ccccc2)C2(CCC(C)CC2)OC1=O (stereo unspecified)	/	92	95	102
COC(=O)C1CCCN1S(=O)(=O)c1ccccc1 (stereo unspecified)	1	78	116	/

# Continuation.
structure	HCMV NEC inh	Sa growth inh	Sa growth inh second temp	GIV Gai3 FP
Cc1ccc(-n2c(SCC(=O)C(C)(C)C)nnc2-c2ccncc2)cc1	-14	89	83	/
Cc1ccc(SCC(=O)NCc2cccs2)cc1	/	111	81	96
O=C(c1cnc(N2CCOCC2)c2ccccc12)N1CCN(c2ccccc2)CC1	/	98	80	108
CC(=O)N(c1ccccc1)c1nc(/C=C(\C#N)C(=O)Nc2nccs2)cs1	-31	103	101	/
O=C(CSc1c2c(nc3ccc(Cl)cc13)CCCC2)NCc1ccco1	-3	100	89	101
Cc1ccc(S(=O)(=O)c2nc(S(C)(=O)=O)sc2N2CCCCC2C)cc1 (stereo unspecified)	25	91	90	103
O=C(Nc1ccc(Cl)cc1)c1ccc(NC(=O)N2CCCCc3ccccc32)cc1	-17	/	/	102
CCOC(=O)N1CCN(C(=O)c2ccc(Cn3c(=O)[nH]c4cc(OC)c(OC)cc4c3=O)cc2)CC1	4	91	99	114
CC(Nc1ncnc2ccccc12)C(=O)O (stereo unspecified)	-1	111	85	/
O=C(Nc1nccs1)c1cc2ccccc2oc1=O	-52	97	85	96
Cc1cccc(CN2CCc3c([nH]c4ccccc34)C2)c1	-15	85	52	101
Cc1cc(OCC(=O)c2c(C)n(C)c3ccccc23)nc2c1c(C)nn2-c1ccccc1	-7	/	/	101
O=C(CC(c1ccccc1)n1cccc1)N1CCc2ccccc21 (stereo unspecified)	-20	104	97	100
O=C(Cn1nc(N2CCN(c3ccccc3)CC2)ccc1=O)NC1CCCCC1	-40	/	/	108
CN1C(=O)c2cc3ccccc3n2CC1(C)C(=O)NCC(=O)NCc1ccccn1 (stereo unspecified)	-18	/	/	105
CC(C)NC(=O)c1ccc2c(c1)N(Cc1ccccc1)C(=O)CS2	/	100	83	100
Cn1c(=O)oc2cc(S(=O)(=O)N3CCC(C(=O)NCCc4ccccc4)CC3)ccc21	-33	100	90	103
O=C(Nc1ccc(Br)cc1F)c1cc(S(=O)(=O)NCc2ccc(F)cc2)ccc1F	/	140	94	102
Cc1ccc(Nc2ccc(N3CCN(C(=O)c4ccc([N+](=O)[O-])cc4)CC3)nn2)cc1	/	138	85	102
O=C1CSC(c2cn(-c3ccccc3)nc2-c2ccc(Br)cc2)N1Cc1ccccc1 (stereo unspecified)	-1	/	/	93

# Another view of part of the listing above:
> Cn1c(=O)oc2cc(S(=O)(=O)N3CCC(C(=O)NCCc4ccccc4)CC3)ccc21
- HCMV NEC inh: -33
- Sa growth inh: 100
- Sa growth inh second temp: 90
- GIV Gai3 FP: 103

> Cc1ccc(-n2c(SCC(=O)C(C)(C)C)nnc2-c2ccncc2)cc1
- HCMV NEC inh: -14
- Sa growth inh: 89
- Sa growth inh second temp: 83
- GIV Gai3 FP: /

# The list goes on:
structure	HCMV NEC inh	Sa growth inh	Sa growth inh second temp	GIV Gai3 FP
Cc1cc(S(=O)(=O)c2ccc(Cl)cc2)sc1C(=O)NCC(O)c1ccccc1 (stereo unspecified)	-20	94	85	98
O=S(=O)(Cc1ccccc1)N1CCN(c2ccccc2Cl)CC1	-1	123	101	110
Cc1cn2c(=O)cc(COc3ccccc3C)nc2s1	-12	/	/	109
CCOc1cc(/C=C2\SCOC2=O)ccc1O	-74	72	36	/
CC1CCCC(NC(=O)CCCn2c(=O)[nH]c3cc(Cl)ccc3c2=O)C1C (stereo unspecified)	/	84	86	102
Cc1ccc(S(=O)(=O)c2cn(Cc3ccc(F)cc3)c3cc(N4CCCC4)c(F)cc3c2=O)cc1	/	110	95	108
Cc1ccc(N(CN2CCCC2=O)C(=O)c2ccccc2)cc1	-27	88	86	102
Cc1cccc2sc(N(CCN(C)C)C(=O)C3COc4ccccc4O3)nc12 (stereo unspecified)	-12	91	95	95
NC(=O)c1nc(-c2ccccc2)nc2c1[nH]c(=O)n2-c1ccccc1	-1	102	96	112
CC1C/C(=N/N=c2\sc3ccccc3n2C)CC(C)(C)C1 (stereo unspecified)	-32	87	88	/
C=C(C)Cn1nc(SCC)n2c(=O)c3c(nc12)-c1ccccc1CC3(C)C	-26	/	/	105
COc1cc(/C=C(/C#N)c2nc(-c3cc4ccccc4oc3=O)cs2)ccc1O	15	95	97	155
CCc1ccccc1N1C(=O)CC(N2CCc3ccccc32)C1=O (stereo unspecified)	-2	107	87	102
Cc1cccc(N2CCN(c3nc4ccccc4n4cnnc34)CC2C)c1 (stereo unspecified)	0	121	96	105
Cc1cc2c(cc1S(=O)(=O)N1CCCC(C(=O)NCCC3=CCCCC3)C1)OCC(=O)N2 (stereo unspecified)	-24	/	/	102
CCOC(=O)c1ccc(N2CN(CC)CNC2=S)cc1	-40	82	68	102
O=S(=O)(NCc1nc(-c2ccccc2)no1)c1ccc(Cl)cc1	-11	88	75	98
Cc1cc(NC(=O)Nc2nnc(N(C)C3CCCCC3)s2)ccc1Br	-10	109	77	103
CCn1c(=N)c(C(=O)NCc2cccnc2)cc2c(=O)n3cc(C)ccc3nc21	-48	103	90	106
NC1=NC(Cc2ccccc2)CC(=O)N1 (stereo unspecified)	/	93	87	101
O=S1(=O)CCC(NS(=O)(=O)c2ccc(-c3ccccn3)s2)C1 (stereo unspecified)	-34	94	87	98
CCC(C)N=C1NC(=O)C(CC(=O)NCc2ccccc2)S1 (stereo unspecified)	-1	94	90	/
CCOc1ccccc1NC(=O)N1Cc2c(sc3c2CCN(C)C3)-n2cccc2C1C (stereo unspecified)	-27	/	/	108
C=CCn1c(=O)c2c(nc3n2CC(C)CN3Cc2ccccc2)n(C)c1=O (stereo unspecified)	/	86	88	100
